PKD1 kinase inh – PKD1 (human) kinase inhibition. Q15139. PKD1 kinase fluorescence polarization assay. inhibition, %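 (about 10 µM by stock and volumes)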. 0.056% of 200,000 active. AID 797;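 active = inhibition of 50% or more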;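 also: controls were vehicle for no effect and a reference inhibitor for full effect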
Target sequence (Q15139 whole entry, looked up): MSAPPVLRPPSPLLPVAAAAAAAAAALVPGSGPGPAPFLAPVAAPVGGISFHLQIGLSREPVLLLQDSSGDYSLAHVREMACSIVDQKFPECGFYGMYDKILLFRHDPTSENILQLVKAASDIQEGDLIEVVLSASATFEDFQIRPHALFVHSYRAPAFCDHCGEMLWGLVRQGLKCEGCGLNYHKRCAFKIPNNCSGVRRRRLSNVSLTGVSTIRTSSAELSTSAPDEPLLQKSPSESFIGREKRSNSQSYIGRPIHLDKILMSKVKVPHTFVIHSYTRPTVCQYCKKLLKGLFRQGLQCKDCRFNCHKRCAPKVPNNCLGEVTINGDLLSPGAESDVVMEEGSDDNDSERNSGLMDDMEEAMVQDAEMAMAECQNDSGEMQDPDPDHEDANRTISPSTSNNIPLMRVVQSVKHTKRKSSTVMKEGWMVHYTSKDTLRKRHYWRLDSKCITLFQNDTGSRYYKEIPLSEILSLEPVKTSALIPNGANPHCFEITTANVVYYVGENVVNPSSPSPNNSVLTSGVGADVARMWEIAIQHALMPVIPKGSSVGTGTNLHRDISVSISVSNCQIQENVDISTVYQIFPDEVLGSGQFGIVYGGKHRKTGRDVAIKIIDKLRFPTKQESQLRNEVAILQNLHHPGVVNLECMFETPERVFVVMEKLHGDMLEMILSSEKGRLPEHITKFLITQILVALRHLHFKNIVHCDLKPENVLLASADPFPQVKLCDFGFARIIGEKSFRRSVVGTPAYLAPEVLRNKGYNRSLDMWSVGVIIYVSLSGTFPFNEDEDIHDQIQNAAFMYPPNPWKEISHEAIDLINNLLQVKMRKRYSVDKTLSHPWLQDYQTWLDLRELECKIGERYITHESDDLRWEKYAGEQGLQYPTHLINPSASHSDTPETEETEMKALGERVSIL
HSV augment – increases HSV replication in cells. HSV replication augmentation in cells, fold increase. maximum fold increase. 0.005% of 220,000 active;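 active = peak rise of 1.5-fold or more in the series; tested in PC3 cells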;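 also: first round at 10 µM; read as green reporter fluorescence; hits show the peak of a series up to 25 µM; 1 = signal of infected wells without compound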
GALR2 ag – GALR2 (human) receptor agonism; O43603; GALR2-expressing cells, agonist activation read-out; activation, %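 (tested at 5 µM)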; 0.48% of 140,000 active; AID 803;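 active = above mean plus 3 SD of all compounds, about 5% in these data, not always enough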;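 also: 0% = vehicle buffer wells and 100% = reference agonist at full effect; tested in CHO reporter cells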
Insulin prom inh – TRM-6 insulin promoter activity inhibition; TRM-6 cells (human fetal islet line), insulin promoter-eGFP reporter, imaging; reporter expression induced with tamoxifen; inhibition, % at 2 µM; 0.9% of 130,000 active; AID 1273;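 active = inhibition above the mean plus 3 SD, with well images judged a real hit on visual review, cut at about 60% in these data, passing the limit was not always enough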
RGS16-Gao – regulators of human RGS16-Galphao interaction; bead-based flow cytometry RGS16-Galphao binding, fluorescence; actives lie on both sides; binding response (% of control), % at 10 µM; 0.38% of 220,000 active; AID 1441;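 active = below 25% or above 175%, edge rows of some plates excepted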;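 also: Galphao activated by GDP with aluminum fluoride before binding; 100% = wells without compound and 0% = beads without RGS; some results beyond the cut were filed as inactive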
Insulin prom inh cell count – second read-out of Insulin prom inh, no call of its own (marks repeat the call); normalized cell count, %; measured here: cell count, toxicity; reference of the scale not given here;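 cells exposed to compound for 48 h; stained nuclei by imaging scaled within each plate; lower means fewer cells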
HSV augment primary fold – also measured in HSV augment; calls as there; fold increase; compound at 10 µM; measured here: primary screen fold increase 10 uM; tested in PC3 cells;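 GFP signal in the first replicate; 1 = infected wells without compound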
Active calls of the source: *; i = inactive; . = not tested or not shown; & = joins results of further samples.

A first look:
SMILES	PKD1 kinase inh	HSV augment	HSV augment primary fold	GALR2 ag	Insulin prom inh	Insulin prom inh cell count	RGS16-Gao
Cc1ccc(NC(=O)CCC(=O)c2cccs2)c(O)c1	.	i	0.88	.	.	.	104
Cn1nnnc1SCC(=O)Nc1cc(C(F)(F)F)ccc1N1CCOCC1	-4	i	0.96	.	.	.	101
CCC(=O)NC1=C(NC(C)c2ccccc2)C(=O)c2ccccc2C1=O (centres undefined)	2	i	0.95	-2.5	-16	76	104
CCOC(=O)C1CCN(c2ncnc3c2cnn3-c2ccc(OC)cc2)CC1	4	.	.	-1.0	.	.	107
Cc1ccc(-c2cn(-c3ccccc3)c3[n+]2CCCS3)cc1	-5&2	i	0.89&0.96	-1.1&-2.2	15&36	100&95	103&71
Cc1cc(/C=C(\C#N)C(N)=O)c(C)n1-c1ccc(N2CCOCC2)c([N+](=O)[O-])c1	-6	i	0.88	3.4	-24	112	100

Main list, from the start:
SMILES	PKD1 kinase inh	HSV augment	HSV augment primary fold	GALR2 ag	Insulin prom inh	Insulin prom inh cell count	RGS16-Gao
Cc1ccc(NC(=O)CCC(=O)c2cccs2)c(O)c1	.	i	0.88	.	.	.	104
Cn1nnnc1SCC(=O)Nc1cc(C(F)(F)F)ccc1N1CCOCC1	-4	i	0.96	.	.	.	101
CCC(=O)NC1=C(NC(C)c2ccccc2)C(=O)c2ccccc2C1=O (centres undefined)	2	i	0.95	-2.5	-16	76	104
CCOC(=O)C1CCN(c2ncnc3c2cnn3-c2ccc(OC)cc2)CC1	4	.	.	-1.0	.	.	107
Cc1ccc(-c2cn(-c3ccccc3)c3[n+]2CCCS3)cc1	-5&2	i	0.89&0.96	-1.1&-2.2	15&36	100&95	103&71
Cc1cc(/C=C(\C#N)C(N)=O)c(C)n1-c1ccc(N2CCOCC2)c([N+](=O)[O-])c1	-6	i	0.88	3.4	-24	112	100
Nc1nc(SCC(=O)NCCN2CCOCC2)nc2sc3c(c12)CCC3	-8	i	0.96	-1.1	-38	73	100
COC(=O)c1ccc(CSCC(=O)Nc2ccccc2)cc1	-4	i	1.1	.	.	.	109
COc1ccc(NS(=O)(=O)c2cc(NC(=O)c3cccs3)ccc2N2CCCC2)cc1	-7	i	0.84	0.7	31	113	34
CC(=O)Nc1ccc(S(=O)(=O)N2CCN(CCCOc3ccccc3Cl)CC2)cc1	-7	i	0.74	-0.8	6	120	114
COc1ccc(/C=N/NC(N)=S)cc1OC(=O)c1ccccc1	0	i	0.88	0.4	-4	102	103
CCC1Oc2ccccc2N(CC(=O)NCc2ccco2)C1=O (centres undefined)	-3	i	1.1	.	.	.	61
O=C(C1=C[C@@H](c2ccccc2)C[C@@H](OCc2ccc(CO)cc2)O1)N1CCOCC1	-3	i	0.94	.	.	.	104
CONc1nc(NC(C)(C)C)nc(OCC#N)n1	-8	i	0.91	-0.7	-53	98	104
CCCCC12CN3CC(C)(CN(C1)C31C(=O)N(C)c3ccc(C)cc31)C2=O (centres undefined)	-13	i	1.2	-1.9	-24	120	106
CCOC(=O)N1CCN(C(=O)COc2ccc(Br)cc2)CC1	5	i	0.97	-1.4	-33	118	101
COc1ccc(-c2oc(NC(C)=O)c(C#N)c2-c2ccc(OC)cc2)cc1	-5	i	1	-0.8	-53	123	96
CCOc1cccc(-c2nn(-c3ccccc3)cc2/C=C(/C#N)C(=O)NCCCn2ccnc2)c1	5	i	0.59	46*	-22	97	103
CC(NC(=O)c1ccc(Cn2cc([N+](=O)[O-])cn2)cc1)c1ccccc1 (centres undefined)	-4	i	0.94	-1.7	35	65	103
O=C(CCc1nnc(-c2ccccc2)o1)NCc1c(F)cccc1F	6	i	0.94	.	.	.	118
COc1ccc(-c2csc(Nc3ccc(S(=O)(=O)Nc4cc(C)on4)cc3)n2)cc1	-3	i	1.1	.	.	.	97
COCC(C)NC(=O)c1ccc(CN2CCc3ccccc3C2)cc1 (centres undefined)	-6	i	0.99	.	.	.	101
N#CCCCCN1c2cccc3cccc(c23)S1(=O)=O	5	i	0.98	-1.7	6	141	98
COc1cccc(NC(=O)[C@@H]2CCCN2C(=O)C2CCN(S(=O)(=O)c3ccc(C)cc3)CC2)c1	-10	i	0.74	0.3	.	.	103
O=C(O)Cc1ccc(C(=O)c2ccc(F)cc2)s1	5	i	0.96	-2.0	53	62	101
O=C(Nc1ccn(Cc2ccccc2)n1)c1ccc2c(c1)OCO2	-3	i	0.97	.	-37	121	102
O=C1NCCN(Cc2ccc(Cl)c(F)c2)C1CC(=O)N1CCCO1 (centres undefined)	1	i	0.87	.	10	70	106
COc1ccc(-c2cc(-c3ccc(OC)cc3)c(C#N)c(SC)n2)cc1	-2	i	0.93	-2.7	-262	74	188
COc1ccc(C(=O)NN/C(=N/S(=O)(=O)c2ccc(C)cc2)c2ccccc2)cc1	.	i	0.92	.	.	.	104
COc1ccc(CN(C)CC(=O)Nc2ccc(N3CCOCC3)cc2)cc1OC	0	i	1.1	0.6	.	.	105
COc1ccc(S(=O)(=O)N2CCOCC2)cc1NC(=O)c1ccc2c(c1)OCCO2	-1	i	0.99	.	.	.	103
C=CCn1c(SCC#N)nc2ccccc2c1=O	-10	i	0.96	0.2	.	.	103
CCN(CC)C(=O)c1ccc(NS(=O)(=O)c2ccc(/C=C/C(=O)O)cc2)cc1	1	i	0.98	.	40	61	110
CC(=O)c1sc(-c2ccccc2)cc1NS(=O)(=O)c1ccc(C)cc1	.	i	1.2	.	.	.	103
CC(C)C(=O)Nc1ccc2c(c1)oc1ccccc12	-5	i	0.84	-1.1	-46	119	99
CC(CN1CCN(C)CC1)OC(=O)c1ccc(F)cc1 (centres undefined)	12	i	0.97	.	17	71	99
Cc1oc2cc3oc(=O)c4c(c3cc2c1C)CCC4	0	i	0.88	-3.3	.	.	103
O=C(c1ccc(Cn2cc(Cl)cn2)o1)N1CCN(Cc2ccc3c(c2)OCO3)CC1	0	i	0.87	-2.5	.	.	106
CCCC(=O)Nc1nc2ccc(C(=O)OCC)cc2s1	3	i	0.84	-2.3	.	.	98
COc1ccc(C=O)cc1COc1c(F)c(F)cc(F)c1F	-4	i	0.79	-1.9	-3	86	110
COc1ccc(CC(=O)Nc2ccc(C(=O)NC(C)(C)C)cc2)cc1	-7	i	0.93	-1.3	-13	55	100
CC1(C)NC(=O)N(CN2C(=O)NC(C)(C)C2=O)C1=O	-13	i	1.1	-1.0	-22	169	101
N/C(=N\OC(=O)COc1ccc2ccccc2c1Br)c1ccncc1	-2	i	0.86	.	.	.	105
COC(=O)NCc1cc2cc(Cl)ccc2[nH]1	-1	i	1	-2.1	38	155	98
O=c1c(-c2ccc(O)cc2)coc2cc(OC3OC(CO)C(O)C(O)C3O)cc(O)c12 (centres undefined)	1	i	0.73	-1.2	35	72	89
O=C(c1cccc(F)c1)N1CCN(C2CCCCC2)CC1	3	i	1.1	-2.9	13	118	101
CN1C[C@@H]2C[C@@H](c3ccc(C#CC(C)(C)O)s3)N3CCC[C@@]23C1=O	-5	i	0.92	.	-9	60	110
COc1ccc(OCC(O)CNCc2ccco2)cc1 (centres undefined)	-14	i	0.8	-2.6	4	96	95

A second format for some results above.
Each structure is followed by: PKD1 kinase inh	HSV augment	HSV augment primary fold	GALR2 ag	Insulin prom inh	Insulin prom inh cell count	RGS16-Gao
- O=C(O)Cc1ccc(C(=O)c2ccc(F)cc2)s1
→ 5	i	0.96	-2.0	53	62	101
- N#CCCCCN1c2cccc3cccc(c23)S1(=O)=O
→ 5	i	0.98	-1.7	6	141	98

Following part.
SMILES	PKD1 kinase inh	HSV augment	HSV augment primary fold	GALR2 ag	Insulin prom inh	Insulin prom inh cell count	RGS16-Gao
Nc1nnc(CC(=O)Nc2ccccc2)s1	.	i	1.1	.	.	.	90
O=C(N/N=C/c1ccccc1Cl)c1n[nH]c2c1CCCC2	-3	i	0.95	2.9	-22	127	37
Cc1ccc(S(=O)(=O)n2nc(OC(=O)c3cccs3)cc2N)cc1	-6	i	1.1	-0.9	-79	102	105
Cc1ccc(C2(c3noc(CN4CCC(c5ccncc5)CC4)n3)CCCC2)cc1	2	i	0.94	.	0	92	93
Cc1cccc(-n2nc3c(c2NC(=O)c2ccc(S(=O)(=O)N4CCOCC4)cc2)CSC3)c1C	12	.	.	1.1	-9	67	98
CCCNS(=O)(=O)c1cc(Cl)ccc1OC	-6	i	1.1	.	.	.	99
CC(C)NC(=O)c1ccccc1NC(=O)/C=C/c1ccc([N+](=O)[O-])cc1	-11	i	0.93	-1.9	24	139	107
OCc1nc2ccccc2n1CC(O)Cn1ccc2ccccc21 (centres undefined)	-11	i	1.1	-3.7	-91	159	101
CCOC(=O)N1CCN(C(=O)CCCOc2ccccc2)CC1	-1	i	1	-2.5	-58	101	95
COc1ccc(C(=O)c2c[nH]c(C(=O)NCCCN3CCOCC3)c2)cc1	8	i	1	.	8	96	97
COc1ccc(C(=O)Nc2ccc3c(c2)nc(CCNC(C)=O)n3C)cc1	2	i	1.1	0.8	29	130	163
C/C=N\NC(=O)COc1cc(C)ccc1C	-2	i	0.89	.	.	.	105
CC(=O)Nc1ccc(NC(=O)CN(c2cccc(C)c2)S(C)(=O)=O)cc1	4	i	0.85	-1.8	0	54	87
CC(NC(=S)Nc1ccccc1Cl)C(c1cccs1)N1CCCC1 (centres undefined)	-11	i	0.97	-0.8	-36	49	111
N#Cc1ccccc1Cn1c(=O)n(Cc2ccc(C(=O)NCc3ccco3)cc2)c(=O)c2sccc21	-1	i	0.83	-1.1	.	.	95
COC(=O)CNC(=O)Cn1nc(C)c([N+](=O)[O-])c1C	-5	i	0.95	.	.	.	98
COc1ccc(NC(=O)c2ccccc2Cl)cc1NC(=O)CN1CCOCC1	3	i	0.97	-2.2	-11	56	67
Cc1nn(C)cc1S(=O)(=O)N1CCN(Cc2cccc(Cl)c2)CC1	6	i	1	.	.	.	76
O=C(NCCc1ccc(Cl)cc1)C1CCN(S(=O)(=O)c2ccc(Br)s2)CC1	5	i	0.97	.	.	.	98
CCOC(=O)N1CCN(S(=O)(=O)c2ccc(C(=O)Nc3nc4ccc(F)cc4s3)cc2)CC1	-4	.	.	-1.4	-42	37	104
CCC(=O)N1CCN=C1SCc1ccc(F)cc1	4	i	1.1	-1.6	.	.	107
Cn1c(N)c(C(=O)COC(=O)Cc2ccsc2)c(=O)n(C)c1=O	-9	i	1.2	0.4	.	.	103
COC(=O)c1cc(C(=O)Nc2ccc(S(=O)(=O)NC(C)(C)C)cc2)cc([N+](=O)[O-])c1	-4	i	0.9	-0.3	36	122	112
C=CCn1c(COc2ccc(Cl)cc2)nnc1SCC(=O)N/N=C/c1cccc(O)c1	9	i	0.77	-1.1	-29	120	102
CCOc1ccccc1C1C(C(=O)Nc2ccccc2OC)=C(C)Nc2nnnn21 (centres undefined)	-12	i	0.7	-0.9	-23	93	105
O=C(COc1ccc(S(=O)(=O)NC2CCCCC2)cc1)NCc1ccccn1	-4	i	0.86	-1.1	-206	42	105
Nc1ncccc1OCc1ccc(Br)cc1	-5	i	0.81	.	-33	87	78
COc1ccc(-c2nnc(SCC(=O)N3CCc4ccccc4C3)o2)cc1	4	i	0.86	0.1	.	.	106
CCn1cc(C2=NOC(C(=O)Nc3ccc4c(c3)OCO4)C2)c(C)n1 (centres undefined)	-11	i	1	-0.5	.	.	99
CN1C(=O)NC(c2ccccc2)C2=C1CN(c1ccc3ccccc3c1)C2=O (centres undefined)	-2	i	0.86	0.2	30	142	101
Cc1c(Cl)cccc1NC(=S)NNc1ncc(C(F)(F)F)cc1Cl	-4	i	0.86	-3.3	-22	69	97
O=C(Nc1ccc2ccccc2c1)c1onc2c1CCCC2	3	i	0.94	0.7	.	.	111
O=C(CC1Sc2ncnn2C1=O)Nc1ccccc1 (centres undefined)	-7	i	1.1	-0.8	43	62	107
CC(=O)c1c(C)[nH]c(C(=O)OCC(=O)Nc2cc(Cl)ccc2[N+](=O)[O-])c1C	10	i	1	-0.9	.	.	101
CC1CCc2c(sc(NC(=O)CCCn3cnc([N+](=O)[O-])n3)c2C(N)=O)C1 (centres undefined)	10	i	1	.	.	.	99
C/C(=N\N=C(/N)c1nonc1N)c1ccc2c(c1)OCO2	.	i	1	.	.	.	100
CC1=CC2=NC(=O)/C(=C\c3cccn3CCOc3ccccc3)C(=N)N2O1	6	i	1	-0.7	-2	113	100
c1ccc2c(c1)CNC1(CCCCC1)C2	-4	i	0.95	-2.5	23	107	97
CCOC(=O)c1c(O)c2ccccc2n(-c2ccccc2)c1=O	-9	i	0.88	-1.7	3	70	98
